High-throughput results deposited in PubChem by National Center for Advancing Translational Sciences (NCATS).
PMP22 txn prim = Cell-based coincidence reporter assay to measure PMP22 gene transcription in S16 Pmp22-F2sN cells - Primary screen; S16 Pmp22-F2sN Schwann cells (luciferase reporters placed in the Pmp22 gene), FLuc/NLuc coincidence luminescence, 24 h; Potency, µM (titrated, usually from 57.5 µM), without a hit: at the top dose activity change, negative = inhibition, most hits filed as inhibitors; 2% of 43,000 active; AID 1508649, 2021; active = clear falling dose curves in both reporters; inconclusive = both reporters move, but less clearly or upward; inactive = either reporter flat; the % is the NLuc reporter signal; also: % is scaled to controls: 0 for no effect and ±100 for the full control effect; some results filed as inactive show a strong effect at the top dose
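S16(c9) Schwann cells with FLuc/NLuc coincidence reporter in the Pmp22 3' UTR; compounds pin-transferred, 24 h at 37C. Dual-luciferase read: FLuc first, then NLuc after Stop&Glo, each 10 min at room temperature.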
HTT prom inh = Primary qHTS for Identification of Small Molecule Inhibitors of Huntingtin Promoter Activity | 0.93% of 48,000 active | HEK293 HTT promoter firefly luciferase reporter (activity 0% = vehicle and -100% = no light), 24 h | AID 1508623, 2021 | Potency, µM (highest dose often 57.5 µM), inactives show top-dose activity change, negative = inhibition, most hits filed as inhibitors; active = well fitted inhibition curve with a large enough effect; inconclusive = small, poorly fitted or top-dose-only effect; inactive = no such curve, though single readings can be large or run the other way; also: nearly all actives have a fitted effect of over 50% in size
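Firefly luciferase signal from promoter-reporter HEK293 cells was scaled between vehicle (0%) and zero RLU (-100%). Compounds were tested at final concentrations of up to 57.5 uM over 24 h at 37 degrees C. PTC124 at 50 uM final served as control inhibitor.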
* = called active by the depositor; ? = inconclusive; . = no result given; [ ] = another dose, or the depositor's remark. Potency is read from the fitted curve at half-maximal effect. This is a random part of the collection, and some 2.6% of all compounds hit somewhere here.

Values in the order – PMP22 txn prim	HTT prom inh
> Cc1c(-c2cccc(NC(=O)Nc3ccc(Cl)cc3)c2)nc2ncccn12
    -93%	-18%
> COc1cc(Cl)c(C)cc1NC(=O)CCCN1C(=O)C(c2ccccc2)Oc2cccnc21 (centres undefined)
    ?	-36%
> COc1cc(NC(=O)C2CCCN(S(=O)(=O)c3ccc4c(c3)oc(=O)n4C)C2)c(C(=O)O)cc1OC (centres undefined)
    -26%	-12%
> O=C1C2=C(Nc3ccccc3SC2c2ccccc2C(F)(F)F)c2ccccc21 (centres undefined)
    13µM*	?
> CCc1ccccc1N1CC(c2nc3ccccc3n2CCCCOc2ccccc2OC)CC1=O (centres undefined)
    ?	-6%
> COC(=O)c1ccccc1NC(=O)c1ccc(COc2cc(C)cc(C)c2)o1
    -18%	-13%
> CSc1ccc(CCNC(=O)c2cc3n(n2)CCCN(Cc2ccc(C)cc2)C3=O)cc1
    ?	?
> CCN(CC)CCNC(=O)C1CCN(C(=O)c2cnn(-c3ccccc3)c2-n2cccc2)CC1
    6%	-10%
> COc1ccc(C(=O)Nc2nnc(S(=O)(=O)N(C)c3ccc(C)cc3)s2)cc1
    ?	7%
> COc1ccc(NC(=O)Cn2c(=O)oc3cc(S(=O)(=O)N4CCC(C)CC4)ccc32)c(OC)c1
    -22%	?
> CC1(c2ccccc2)CC(C)(C)N(C(=O)c2ccccc2Cl)c2ccccc21 (centres undefined)
    ?	-28%
> Cc1ccccc1NC(=O)Cn1c(=O)n(CCCCCC(=O)NCc2ccc3c(c2)OCO3)c(=O)c2sccc21
    ?	-20%
> CCN1CCN(c2oc(-c3ccc(COc4ccc(C)cc4)o3)nc2C#N)CC1
    ?	-25%
> COc1ccccc1N1CCN(C(=O)CCS(=O)(=O)c2cc(Br)cc3c2N(C(C)=O)CC3)CC1
    -11%	-13%
> CCc1cccc(NC(=O)Cn2c(=O)n(Cc3ccccc3)c(=O)c3c(C)c(C(=O)N(C)C)sc32)c1
    -13%	-4%
> O=c1oc2c(CN3CCOCC3)c(O)ccc2cc1-c1ccc(Cl)cc1
    -26%	21%
> CCOC(=O)c1c(C)[nH]c(C)c1S(=O)(=O)N1CCC(C(=O)Nc2ccc(OCC)cc2)CC1
    25%	-18%
> O=C(NC1CC(=O)N(c2ccc(Cl)cc2)C1)c1ccc(S(=O)(=O)N2CCOCC2)cc1 (centres undefined)
    -17%	-28%
> CCOC(=O)c1c(C)oc2nc(C)nc(NCC3CCN(Cc4ccc(F)cc4)CC3)c12
    11%	0%
> Cc1nc2nc(C)c(CCC(=O)NCc3cccc(Cl)c3)c(C)n2n1
    -5%	1%

Values in the order – PMP22 txn prim	HTT prom inh
> CN(C)c1ccc(C(=O)NCc2ccc3c(c2)CCN3C(=O)c2ccccc2)cc1
    -3%	-27%
> O=C(CCc1ccccc1)N(Cc1cccnc1)c1nc2c(F)cccc2s1
    -21%	?
> COc1ccc2c(c1)c1c(c(=O)n(Cc3ccccc3)c(=O)n1CC(=O)Nc1cc(C)cc(C)c1)n2C
    -3%	-8%
> Cc1c(O)cccc1C(=O)N[C@@H](CSc1ccccc1)[C@H](O)CN1C[C@H]2CCCC[C@H]2C[C@H]1C(=O)NC(C)(C)C
    .	?
> COc1ccc(/C=C/C(=O)Nc2ccc3nc(N4CCC(C)CC4)cc(C)c3c2)cc1OC
    ?	?
> Cc1cccc(Nc2nnc(-c3ccc(C)c(S(=O)(=O)N4CCCCC4)c3)c3ccccc23)c1
    -10%	?
> O=C(CS(=O)(=O)c1cccc2nsnc12)Nc1cc(F)ccc1F
    -15%	2%
> O=C1CN(C(=O)c2ccc(S(=O)(=O)N3CCCC3)cc2)C(c2ccccc2)c2cc(Cl)ccc2N1 (centres undefined)
    -4%	?
> Cc1ccccc1CNC(=O)Cn1c(=O)c2cccn2c2cccnc21
    -3%	1%
> Cc1ccc(NC(=O)c2oc3ccc(S(=O)(=O)N4CCCCC4)cc3c2C)cc1Cl
    ?	-15%
> Cc1ccc(-c2nc3c4ccccc4n(CC(=O)N4CCN(c5ccc(F)cc5)CC4)c(=O)n3n2)cc1
    2%	11%
> CCN1CCN(c2cc(C)c3cc(NC(=O)c4cc(OC)c(OC)c(OC)c4)ccc3n2)CC1
    -2%	14%
> CCN(CC)CCNC(=O)c1ccc2c(c1)NC(=O)C(CS(=O)(=O)Cc1cccc(Br)c1)N2 (centres undefined)
    ?	-7%
> COc1ccc(NC(=O)CN(C)S(=O)(=O)c2ccc3nc(C)sc3c2)cc1
    -13%	-18%
> CN(C)S(=O)(=O)c1ccc(C(=O)NCCS(=O)(=O)N2CCN(c3ccccc3)CC2)cc1
    6%	?
> CCOC(=O)c1ccc(NC(=O)CCc2c(C)nc3c(c(C)nn3-c3ccccc3)c2C)cc1
    -2%	-11%
> COc1ccc(NC(=O)CSc2nc3ccccc3n2CC(=O)Nc2cccc(C)c2C)cc1
    ?	?
> COc1cc(/C=C(\C#N)c2nc3ccccc3[nH]2)ccc1OCc1ccc(F)cc1
    ?	-25%
> COc1ccc(CCNC(=O)Cn2c(=O)nc(-c3ccccc3)c3cc(Cl)ccc32)cc1OC
    -26%	-13%
> CCOC(=O)c1ccc2ncc(C(=O)OCC)c(NCCc3ccc(OC)c(OC)c3)c2c1
    ?	-19%

By substructure, those above containing a thiophene ring, fused or not (two)
Values in the order – PMP22 txn prim	HTT prom inh
> Cc1ccccc1NC(=O)Cn1c(=O)n(CCCCCC(=O)NCc2ccc3c(c2)OCO3)c(=O)c2sccc21
    ?	-20%
> CCc1cccc(NC(=O)Cn2c(=O)n(Cc3ccccc3)c(=O)c3c(C)c(C(=O)N(C)C)sc32)c1
    -13%	-4%

Next part:
Values in the order – PMP22 txn prim	HTT prom inh
> CCc1ccc(CNC(=O)c2ccc(CSc3nc4ccncc4n3Cc3ccc(OC)cc3)cc2)cc1
    -26%	?
> Cc1ccc2[nH]c(CSc3nnc(NC(=O)COc4ccccc4Cl)s3)cc(=O)c2c1
    -10%	6%
> CCCC(=O)OC1=C(C(C)=O)N(Cc2ccccc2)S(=O)(=O)c2ccccc21
    ?	-38%
> Cc1ccc(CNC(=O)CSCc2ccc(F)cc2)cc1
    -1%	-15%
> COc1cccc(CNC(=O)c2ccc3c(c2)nc2n3CCC(C)C2)c1 (centres undefined)
    -2%	45%[activator]
> CCOc1ccccc1CNC(=O)c1cc2oc3ccccc3c2n1CC
    -1%	?
> CCOC(=O)N1CCC(NC(=O)c2ccc3c(c2)N(Cc2ccc(F)cc2)C(=O)c2ccccc2S3(=O)=O)CC1
    -21%	-31%
> O=C(COc1ccc(Cl)cc1)NCCc1csc(-c2ccc(C(F)(F)F)cc2)n1
    0%	-23%
> CCc1nc2nc(C)c(NS(=O)(=O)c3ccc(F)c(C)c3)c(=O)n2[nH]1
    ?	-18%
> Cc1ccc(-n2nnc(-c3nc(-c4cccs4)no3)c2N)c(C)c1
    ?	64%[activator]
> Cc1ccc(-c2cnc(NCc3ccc(C(C)C)cc3)n2C)cc1
    -20%	-16%
> Cc1ccc(-c2cc(C(F)(F)F)n3nc(-c4ccc(Cl)cc4)cc3n2)cc1
    18%	-16%[11.5 µM]
> COC(=O)c1sc(N2C(=O)c3oc4ccccc4c(=O)c3C2c2ccc(O)cc2)nc1C (centres undefined)
    -10%	-15%[11.5 µM]
> Cc1cc(O)c(C(c2ccccc2)N2CCC(C)CC2)c(=O)n1Cc1ccco1 (centres undefined)
    -10%	-12%
> COc1ccc(Br)cc1CNC(=O)c1cc2n(n1)CCCN(Cc1ccc(C)cc1)C2=O
    ?	-30%
> COc1cc2c(C(=O)Nc3cc(OC)c(OC)c(OC)c3)cn(C)c(=O)c2cc1OC
    6%	-5%
> O=C(c1cccc(Cl)c1)N1CCN(CCc2ccncc2)CC1
    14%	-12%
> Cc1ccc(S(=O)(=O)NCCc2nnc3ccc(SCc4ccccc4F)nn23)cc1
    -28%	-14%
> CCc1ccc2oc(C(=O)Nc3nc(-c4ccc(F)cc4)ns3)c(C)c2c1
    -30%	2%
> CCCCN(CC)C(=O)C1CCCN(c2ncnc3onc(C)c23)C1 (centres undefined)
    ?	?

Values in the order – PMP22 txn prim	HTT prom inh
> CCN1CCN(C(c2cccc(Cl)c2)c2c(O)cc(C)n(CCOC)c2=O)CC1 (centres undefined)
    5%	-15%
> CCOc1cccc(CNC(=O)c2ccc(N3CCCC3)c(NC(=O)Nc3ccccc3CC)c2)c1
    ?	-11%
> CCOc1ccc(CCNC(=O)Cn2nc(CC)n3c(cc4sc(CC)cc43)c2=O)cc1OCC
    ?	-15%
> Cc1ccc(C)c(N2CCN(C(=O)c3cc(S(=O)(=O)N4CCCC4)c[nH]3)CC2)c1
    -24%	-21%
> Cc1ccc(S(=O)(=O)c2c(Nc3cccc(Cl)c3)sc(C(=O)c3ccc4c(c3)OCO4)c2N)cc1
    -7%	-16%
> CCc1ccc(-n2c(=O)c3c(C)c(C(=O)N(C)C)sc3n(CC(=O)Nc3cc(Cl)ccc3C)c2=O)cc1
    -18%	26%
> Cc1ccc(Cl)cc1N1CCN(C(=O)c2ccc(CS(=O)c3ccccc3)o2)CC1 (centres undefined)
    10µM*	?
> CCn1cc(C(=O)NCCc2ccc(C)cc2)c(=O)c2cc(S(=O)(=O)N3CCCCC3)ccc21
    -8%	-2%
> Cc1cc(-c2ccc(C)c(S(=O)(=O)N3CCCC(C)C3)c2)on1 (centres undefined)
    ?	?
> O=C(Nc1cc(NC(=O)c2ccccc2Cl)ccc1Cl)c1ccccc1
    2%	-2%
> CCN(CC)c1ccc(-n2nc3cc(C)c(NC(=O)c4ccccc4C)cc3n2)c(C)c1
    ?	-33%
> COC(=O)c1cc(-c2ccc(Cl)cc2)c2c(=O)[nH]c(=O)n(C)c2n1
    ?	-11%
> CCCn1c2ccccc2c2cnn(CC(=O)Nc3cccc(C(=O)OCC)c3)c(=O)c21
    -13%	-20%
> Nc1nc(N)c(S(=O)(=O)c2ccccc2)c(Nc2ccc(Br)cc2)n1
    ?	?
> COc1ccc(-n2nc(C(=O)NCCc3ccc(OC)c(OC)c3)c3c4ccccc4n(C)c3c2=O)cc1Cl
    -51%	-5%
> COc1ccc(NC(=O)c2cc3c(s2)-c2c(C)cccc2OC3)c(OC)c1
    -74%	-6%
> CCOC(=O)c1c(S(=O)(=O)N2CCCC(C(=O)Nc3ccc(OCC)cc3)C2)c(C)n(C)c1C (centres undefined)
    -5%	-11%
> COc1ccc(Br)cc1CNC(=O)CCC(=O)N1CCSc2ccccc21
    ?	-24%
> COc1cccc(N2CCN(S(=O)(=O)c3ccc(-c4ccno4)cc3OC)CC2)c1
    -12%	4%
> O=C(NCc1ccc(Cl)cc1)c1cnc(N2CCCCC2)c2ccccc12
    -23%	?

An excerpt from above in order of heavy-atom count, ascending:
Values in the order – PMP22 txn prim	HTT prom inh
> O=C(NCc1ccc(Cl)cc1)c1cnc(N2CCCCC2)c2ccccc12
    -23%	?
> O=C(CCc1ccccc1)N(Cc1cccnc1)c1nc2c(F)cccc2s1
    -21%	?
> COc1cccc(N2CCN(S(=O)(=O)c3ccc(-c4ccno4)cc3OC)CC2)c1
    -12%	4%
> Cc1c(O)cccc1C(=O)N[C@@H](CSc1ccccc1)[C@H](O)CN1C[C@H]2CCCC[C@H]2C[C@H]1C(=O)NC(C)(C)C
    .	?

(further entries)
Values in the order – PMP22 txn prim	HTT prom inh
> CCC(C)NC(=O)c1ccc2c(c1)N(Cc1cccc(Cl)c1)C(=O)c1ccccc1S2=O (centres undefined)
    -45%	-21%
> Cn1c(C(=O)NCc2ccccc2F)cc2cc(S(=O)(=O)N3CCCCC3)ccc21
    ?	?
> COC(=O)CSc1ccc2nnc(CCNS(=O)(=O)c3ccccc3)n2n1
    2%	-4%
> CCN(Cc1ccccc1)S(=O)(=O)c1ccc2[nH]c3c(c2c1)CCCCC3
    ?	-33%
> COc1ccc(C(=O)NCc2nnc(SCC(=O)Nc3ccc(C)cc3)n2-c2ccccc2)cc1
    -17%	-2%
> CCOCCCNC(=O)C(c1ccc(C)cc1)N(Cc1ccc2c(c1)OCO2)C(=O)c1ccccc1O (centres undefined)
    14%	-14%
> COc1ccc(Br)cc1CNC(=O)CN1C(=O)c2cccnc2Oc2ccc(C)cc21
    ?	-7%
> CCOc1ccc(CNC(=O)c2cnc3sc(N4CCCCCC4)nn3c2=O)cc1OC
    -2%	12%
> CN(Cc1ccccc1)C(=O)c1ccc2c(c1)N(Cc1ccc(Cl)cc1)C(=O)c1ccccc1S2=O (centres undefined)
    ?	?
> Cc1ccc2cccc(NC(=O)C(C)(C)Oc3ccc(Br)cc3)c2n1
    -24%	-8%
> CCOC(=O)C1CCN(C(=O)c2nn(-c3ccc(C)cc3)c(=O)n(C)c2=O)CC1
    -5%	-7%
> CCc1cccc(-n2nnc(-c3nc(-c4cccs4)no3)c2N)c1
    1%	54%[activator]
> CCCCN1CC(c2nc3ccccc3n2CCCCOc2cc(C)ccc2C)CC1=O (centres undefined)
    ?	?
> OCCN1C[C@H](O)[C@@H](O)[C@H](O)[C@H]1CO
    .	7%
> CC(=O)c1c(C)oc2c(Cl)cc(NS(=O)(=O)c3ccc(Cl)cc3)cc12
    ?	-7%
> COc1ccccc1CNCc1ccc(C(=O)O)s1
    0%	-3%
